Compound activity deposited in PubChem BioAssay by National Center for Advancing Translational Sciences (NCATS).
CtBP-E1A inh: inhibitors of CtBP/E1A interaction; AlphaScreen GST-E1A/His-CtBP binding, 1536-well; hits give low values; control for the full effect not named in the record; activity change, % (no concentration beside the values); actives 0.49% (n = 340,000); AID 651724; in the data active means activity change below about -65%; inconclusive means about -30% to -65%; inactive means above about -30%; also: % is scaled to controls: 0 for no effect and ±100 for the full control effect; compound concentration not given in the record
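In 5 uL wells, 23 nL compound meets equimolar GST-E1A and His-CtBP (5X stock 125 nM each) for 2 h, 37 °C. Beads (5X, 50 ug/mL) then 1 h, 37 °C, dark.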
TRPML1 ag: human mucolipin-1 channel agonism; TRPML1-expressing cells, Ca2+ dye fluorescence, FDSS; host cell line not named in the record; reference of the full effect not given here; Q9GZU1; activation, % (test concentration not listed); actives 0.12% (n = 410,000); in the data active = activation above about 50%; inconclusive = about 30% to 50%; inactive = below about 30%; also: 0% is about no effect; the text of the record puts the active cut at 80%
Target sequence (Q9GZU1 whole entry, looked up): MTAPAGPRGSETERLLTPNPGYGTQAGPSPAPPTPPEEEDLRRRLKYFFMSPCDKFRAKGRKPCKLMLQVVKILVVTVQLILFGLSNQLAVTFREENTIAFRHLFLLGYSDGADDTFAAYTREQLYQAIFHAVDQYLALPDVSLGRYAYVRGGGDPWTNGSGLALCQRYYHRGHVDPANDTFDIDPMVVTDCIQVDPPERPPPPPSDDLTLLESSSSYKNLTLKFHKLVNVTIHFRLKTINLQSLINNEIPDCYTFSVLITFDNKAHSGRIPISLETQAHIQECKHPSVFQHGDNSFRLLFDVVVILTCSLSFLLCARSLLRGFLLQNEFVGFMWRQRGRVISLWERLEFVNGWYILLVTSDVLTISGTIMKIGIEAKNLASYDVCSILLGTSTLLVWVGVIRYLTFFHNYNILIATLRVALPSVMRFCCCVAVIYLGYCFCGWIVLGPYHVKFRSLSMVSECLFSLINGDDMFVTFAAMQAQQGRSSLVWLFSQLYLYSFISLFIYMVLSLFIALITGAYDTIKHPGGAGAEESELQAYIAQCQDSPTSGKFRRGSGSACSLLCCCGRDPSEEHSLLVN
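In this qHTS format, compounds were pin-transferred onto Ca8-dye-loaded TRPML1-DL cells induced with Tet overnight, and intracellular Ca2+ fluorescence was recorded kinetically for 110 s after a 10 s baseline. A subsequent 4uM final 54-4 (EC80) addition followed by a second 110 s read served as the antagonist phase.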
TRPML1 inh: blocks the human TRPML1 channel. TRPML1-inducible cells, Ca2+ dye fluorescence, FDSS; hits give low values; inhibition of EC80 agonist-evoked calcium signal. activity change, negative = inhibition, % (concentration not given with the values). actives 0.02% (n = 390,000). AID 624415; in the data active means activity change below about -50%; inconclusive means about -30% to -50%; inactive means above about -30%;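 also: stimulus is agonist 54-4 at its EC80 concentration; % is scaled to controls: 0 for no effect and ±100 for the full control effect; compound concentration not given in the record; the text of the record puts the active cut at -80%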
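Calcium fluorescence in TRPML1-DL cells induced overnight with Tet: a 110 s read after compound pin addition, then a 110 s antagonist read after challenge with 54-4 at 4 uM final (EC80).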
D2 agonist: human D2 receptor agonism in beta-arrestin assay; DiscoveRx PathHunter D2 beta-arrestin, luminescence, 90 min; 100% = 57 uM dopamine signal; activation, % (concentration not given with the values); P14416; actives 0.084% (n = 360,000); in the data active = activation above about 40%; inconclusive = about 15% to 40%; inactive = below about 15%; also: compound concentration not given in the record; the text of the record calls up to 30% inactive
Target sequence (P14416 whole entry, looked up): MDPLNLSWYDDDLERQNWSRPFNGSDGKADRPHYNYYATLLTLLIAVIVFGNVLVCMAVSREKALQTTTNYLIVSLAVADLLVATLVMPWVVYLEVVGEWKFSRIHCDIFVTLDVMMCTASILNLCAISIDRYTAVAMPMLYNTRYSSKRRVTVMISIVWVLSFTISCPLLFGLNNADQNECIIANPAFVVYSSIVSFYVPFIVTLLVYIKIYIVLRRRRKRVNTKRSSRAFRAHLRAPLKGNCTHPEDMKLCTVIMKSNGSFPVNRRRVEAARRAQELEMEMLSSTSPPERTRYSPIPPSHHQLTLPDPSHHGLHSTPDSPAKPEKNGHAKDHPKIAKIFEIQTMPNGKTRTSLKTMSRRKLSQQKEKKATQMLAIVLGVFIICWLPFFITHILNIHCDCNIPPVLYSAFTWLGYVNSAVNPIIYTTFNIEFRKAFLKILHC
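DiscoveRx PathHunter D2 beta-arrestin cells (2,100/well) attached overnight, then compound-stimulated 90 min at 37 C in HBSS/10 mM HEPES/0.1% Tween-20 buffer; beta-galactosidase complementation read by luminescence after 1 h at ambient temperature. Dopamine 57 uM final (EC100) as control.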
PINK1 expr mod: changes PINK1 expression; PINK1 immunofluorescence, high-content cytometry, 24 h; AID 624263; Potency, µM (top dose mostly 76.6 µM), for inactives: at the top dose activation (PINK1 increase), actives largely listed as activators; actives 0.2% (n = 410,000); active = well fitted activation curve with a large enough effect; inconclusive = small, poorly fitted or top-dose-only effect; inactive = flat fitted curve, though single readings scatter; cell line not stated here;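 also: potency is read from the fitted curve at half-maximal effect; % of control where 0% means no effect; nearly all actives have a fitted effect of over 65% in size; a mitochondrial uncoupler was the plate control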
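Measures PINK1 amount and localization on or inside mitochondria by immunofluorescence. Stable cells get compounds at 5 concentrations for 24 hours before fixation and staining; CCCP controls included.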
Six1-Eya2 blk: blocks human Six1 binding to Eya2; Q15475+O00167; AlphaScreen GST-Six1/His-Eya2 binding, biochemical; hits give low values; control for the full effect not named in the record; activity change, % (test concentration not listed); actives 0.56% (n = 360,000); AID 651725; in the data active = activity change below about -65%; inconclusive = about -30% to -65%; inactive = above about -30%; also: % is scaled to controls: 0 for no effect and ±100 for the full control effect; compound concentration not given in the record
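AlphaScreen luminescence read after one hour at 37 °C in darkness. Pin-transferred compounds met GST-Six1 and His-Eya2 protein (5X stock 250 nM/500 nM) plus glutathione donor and Ni-chelate acceptor beads (5X, 50 ug/mL).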
Starred values were filed as active, the others as inactive; u = inconclusive; x = no result given; & = joins results of further samples; [ ] = dose if it differs, or a comment.

SMILES	CtBP-E1A inh	TRPML1 ag	TRPML1 inh	D2 agonist	PINK1 expr mod	Six1-Eya2 blk
O=C(NCc1ccccc1)C1(C(F)(F)F)C/C(=C/CCO)CCCO1 (stereo not given)	2	-0.9&-0.1	-16&-6	0.0	3.4%	2
CCCCNC(=O)CCCN1C(=O)c2cccnc2Sc2ccccc21	x	-0.6	-8	-2.9	0.8%	0
CCOC(=O)N1CCN(C(=O)C2CCN(Cc3nc(-c4ccccc4C)oc3C)CC2)CC1	-1	0.5	4	-3.9	2.4%	-3
COc1ccc(-c2nc(-c3ccncc3)no2)cc1	x	0.2	5	2.6	1.7%	0
Cc1ccc(N(CC(=O)NC2CCCC2)C(=O)CCC(=O)Nc2nccs2)c(C)c1	0	-0.2	-23	-2.6	0.4%	7
Cc1ccc(N/C(N)=N/c2nc(C(F)(F)F)cc(C(F)(F)F)n2)cc1	-4	0.5	14	3.5	5.6%	4
CCOC(=O)c1cc2c(=O)n3ccccc3nc2n(C(C)C)c1=NC(=O)c1cc2ccccc2o1	x	0.0	-6	x	2.0%	x
CCS(=O)(=O)N1CCN(c2ccccc2F)CC1	4	-0.8	9	-2.7	-1.8%	0
CCOC(=O)[C@]12CCCC=C1N(Cc1ccc3c(c1)OCO3)C(=O)[C@H](CC(=O)NCCC(C)C)C2	-10	-1.3	x	x	2.5%	3
CN(Cc1n[nH]c(=S)n1C)S(=O)(=O)c1ccccc1	7	0.4	1	-0.5	x	-1
CN(C)/C=C/C(=O)c1cccc(C(F)(F)F)c1	14	0.9	-14	0.6	-0.2%	24
CCOc1ccc(C(C)=O)cc1CN1C(=O)NC(C)(C2CC2)C1=O (stereo not given)	6	-0.5	-10	3.4	-0.3%	-4
CCOc1cc(NC(=S)Nc2cccc(OC)c2)c(OCC)cc1NC(=O)c1ccc(C)cc1	-17	-0.4	-5	-1.7	9.5%[38.3 µM]	-20
CN1CCOc2ccc(S(=O)(=O)NCCc3ccc(Cl)cc3)cc21	-8	-1.0	5	-4.4	3.4%	-9
O=[N+]([O-])c1cccnc1SCc1c(F)cccc1Cl	-17	3.1	1	-4.4	12%	-19
O=C(NC1CCCCC1)N1CCN(Cc2nc3ccccc3c(=O)[nH]2)CC1	3	0.3	-8	-11	0.9%	2
CCC1Nc2ncnc(N3CCN(c4ccccc4)CC3)c2N(Cc2ccc(OC)cc2)C1=O (stereo not given)	-10	0.0	-6	-16	1.7%	-11
O=C(Nc1ccc2nc3n(c(=O)c2c1)CCCC3)c1cccnc1Cl	-22	-0.3	27	-0.5	0.2%	-26
CSc1nc(N)nc2c1ncn2C1OC(CO)CC1O (stereo not given)	32	-0.3	8	-1.7	-2.7%	-5
Cc1cc(N2CCOCC2)nc2ccc(Cl)cc12	12	1.7	-23	2.1	7.0%	13
O=C1CCN(C(=O)c2ccccc2)C2CCCCC12 (stereo not given)	0	-1.1	-6	-1.0	1.4%	21
CCc1ccc2nc(SCC(=O)N(CC)CC)c(C#N)cc2c1	7	0.3	58	-1.4	0.1%	-2
Cc1n(CC(O)COC2CCCCC2)c2ccccc2[n+]1C (stereo not given)	8	1.9	13	-0.8	2.0%	4
COc1cccc(OCc2cc(C(=O)N(C)C3CCCCC3)no2)c1	2	0.5	22	0.0	1.1%	0
O=C(CCS(=O)(=O)c1ccc(Br)cc1)NC1CCCC1	7	0.6	6	-0.6	-1.6%[38.3 µM]	-10
Cc1ccc(S(=O)(=O)NC(C)C(=O)Nc2ccc3c(c2)OCO3)cc1 (stereo not given)	0	0.2	3	3.1	1.3%	0
Cc1c(C(=O)O)cccc1-c1ccc(/C=N/n2cnnc2)o1	-9	0.9	53	-0.4	-0.2%	-22
Cc1ccc(-c2nc(-c3ccncc3)no2)cc1C	0	0.9	40	-2.2	-1.6%	5
COc1ccc(CN2C(=O)C(CC(=O)NCc3ccco3)CC(C(=O)N3CCOCC3)=C2C)cc1 (stereo not given)	5	-0.2	21	-1.9	-1.4%	6
CCc1cccc(C)c1NC(=O)c1ccc2c(c1)CCN2S(C)(=O)=O	7	0.9	-4	-3.3	1.5%	-3
CNC(=O)CN(c1ccc2c(c1)OCCO2)S(C)(=O)=O	7	1.1	-1	0.1	9.8%[38.3 µM]	2
Cc1cccc(NC(=O)Nc2ccncc2)c1	x	-0.9	-7	u	-0.3%	-2
CCOC(=O)C1=C(C)NC(=S)NC1c1ccc(OCC(=O)N2CCCCC2)cc1 (stereo not given)	1	-0.3	1	1.2	1.4%	-1
Cc1ccc2c(CN(C)Cc3cccc(F)c3)cc(=O)oc2c1	10	1.9	41	0.6	-0.1%	7
CCOC(=O)c1cnc(Nc2nc3ccccc3o2)nc1CN1CCN(C)CC1	-85*	0.5	-22	2.1	3.1%	-87*
CC(=O)Nc1cccc(-c2nc3ccccc3s2)c1	-4	0.6	-10	1.3	3.5%	-2
CSc1ccccc1NC(=O)Nc1ccc(F)c(Cl)c1	2	-0.4	14	1.2	u	4
COc1ccc(NC(=S)NN2C(C)CCCC2C)cc1 (stereo not given)	21	0.2	11	-4.6	-0.1%	-5
CCc1ccc(NC(=O)CN2C(C(=O)OC)=C(c3ccccc3)c3ccccc3S2(=O)=O)cc1	x	0.0	-1	x	1.6%	x
O=C(O)CSC1CC(=O)N(c2cccc(Cl)c2)C1=O (stereo not given)	-3	-0.3	-3	-2.8	-0.9%	0

Next section, starting with the last three of the part before.
SMILES	CtBP-E1A inh	TRPML1 ag	TRPML1 inh	D2 agonist	PINK1 expr mod	Six1-Eya2 blk
COc1ccc(NC(=S)NN2C(C)CCCC2C)cc1 (stereo not given)	21	0.2	11	-4.6	-0.1%	-5
CCc1ccc(NC(=O)CN2C(C(=O)OC)=C(c3ccccc3)c3ccccc3S2(=O)=O)cc1	x	0.0	-1	x	1.6%	x
O=C(O)CSC1CC(=O)N(c2cccc(Cl)c2)C1=O (stereo not given)	-3	-0.3	-3	-2.8	-0.9%	0
CCOC(=O)c1cnn(-c2ccccc2)c1N	-5	0.4	13	-3.1	x	-1
CCCCCn1c(SCCC(C)C)nc2c1c(=O)[nH]c(=O)n2C	2	-0.3	17	-2.0	0.8%	-5
CC1CC(C)CN(C(=O)C2CCN(S(=O)(=O)c3ccc4c(c3)CC(C)N4C(=O)C3CC3)CC2)C1 (stereo not given)	-3	-0.8	11	4.0	-1.1%	-2
CN(Cc1ccccc1)C(=O)c1ccc(NC(=O)Cc2cccc(NC(=O)C3CCCN(C(=O)CCc4ccccc4)C3)c2)cc1 (stereo not given)	-2	0.4	-5	-1.3	1.3%	-4
O=C(NNC(=O)C1CC=CCC1)c1cccc(Br)c1 (stereo not given)	5	-0.3	-6	-2.1	1.3%	-9
O=S(=O)(Nc1nc2ccccc2nc1NCC1CCCO1)c1cccc(Cl)c1 (stereo not given)	-2	0.0	12	1.9	0.0%	4
Cc1nc(NC(=O)CSc2nnnn2Cc2ccccc2)sc1C	-6	0.0	-5	-1.6	-0.7%	0
O=c1[nH]nc(Cc2ccc(-c3ccc(Cl)cc3)o2)c2ccccc12	-10	3.5	44	-1.5	14%	2
COc1cc(C(=O)CCc2ccc3c(c2)OCO3)cc(OC)c1OC	3	-1.1	-3	-2.8	6.0%	-1
CN1CCN(C(c2cccc(Br)c2)c2sc3nc(-c4ccco4)nn3c2O)CC1 (stereo not given)	x	1.5	11	x	0.4%	x
COC(=O)c1c(SCc2ccc(C#N)cc2)nc(=O)[nH]c1C	1	0.5	5	2.6	1.1%	-5
COc1cccc(NC(=O)c2ccc[n+](C)c2)c1	x	1.3	-13	-1.2	-0.7%	4
O=C(Nc1ccc2c(c1)OCO2)C1CC(c2ccc(Cl)cc2)=NO1 (stereo not given)	-1	-0.2	-9	-1.3	-0.4%	-1
Cc1cc(C)nc(SCc2nc3nc(C)cc(C)n3c2Br)n1	-7	1.2	18	0.4	-4.4%[38.3 µM]	-1
CC(=O)N1CCN(CC(=O)Nc2ccc([N+](=O)[O-])cc2Br)CC1	13	-0.4	7	0.5	2.8%	5
O=C(O)c1ccc(S(=O)(=O)/N=C2\C=C(Nc3ccccc3F)C(=O)c3ccccc32)cc1	-76*	1.8	6	-5.7	-3.5%	u
COc1ccc(CN2CCC(n3nccc3NC(=O)C3CC3)CC2)c(OC)c1OC	7	0.5	-7	0.9	0.3%	2
CCCSc1sc(C(=O)OC)c(-c2cccs2)c1C#N	26	3.6	-12	-2.7	0.3%	7
COc1ccc(N(CC(=O)Nc2c(C)n(C)n(-c3ccccc3)c2=O)S(=O)(=O)c2ccc(C)cc2)cc1OC	0	-0.3	-8	-1.5	0.5%	16
CN(C)c1ccnc(SCc2ccccc2Cl)c1C#N	37	0.4	-2	-0.5	3.6%[38.3 µM]	26

Rewritten field by field: entries from further up.
> CC(=O)N1CCN(CC(=O)Nc2ccc([N+](=O)[O-])cc2Br)CC1
  CtBP-E1A inh: 13
  TRPML1 ag: -0.4
  TRPML1 inh: 7
  D2 agonist: 0.5
  PINK1 expr mod: 2.8%
  Six1-Eya2 blk: 5
> O=C(O)c1ccc(S(=O)(=O)/N=C2\C=C(Nc3ccccc3F)C(=O)c3ccccc32)cc1
  CtBP-E1A inh: -76*
  TRPML1 ag: 1.8
  TRPML1 inh: 6
  D2 agonist: -5.7
  PINK1 expr mod: -3.5%
  Six1-Eya2 blk: u
> COc1ccc(CN2CCC(n3nccc3NC(=O)C3CC3)CC2)c(OC)c1OC
  CtBP-E1A inh: 7
  TRPML1 ag: 0.5
  TRPML1 inh: -7
  D2 agonist: 0.9
  PINK1 expr mod: 0.3%
  Six1-Eya2 blk: 2

Following part
SMILES	CtBP-E1A inh	TRPML1 ag	TRPML1 inh	D2 agonist	PINK1 expr mod	Six1-Eya2 blk
Cc1c(OC(C)C(=O)NCc2ccncc2)ccc2c3c(c(=O)oc12)CCC3 (stereo not given)	-16	-1.2	5	0.2	-0.1%	-6
Cn1c(=O)c2c(-c3ccc(Cl)cc3)n(CCc3ccccc3)cc2n(C)c1=O	x	4.2	85	x	-1.4%	x
CCCN1CCN(CCNC(=O)Nc2ccccc2OCC)CC1	x	-0.7	-6	x	0.4%	x
CCCCCCCCCC(=O)N/N=C(\C)c1cccnc1	32	1.4	0	-1.3	-0.2%	23
Cc1noc(C)c1COc1ccc(C(=O)NCCc2ccc(S(N)(=O)=O)cc2)cc1	-17	-0.6	-10	-3.1	4.1%	2
OC[C@@H](O)[C@H](O)C(/C=N/Nc1ccccc1)=N\Nc1ccccc1	-8	-0.1	20	4.6	2.2%	-4
C(=N\n1cnnc1)/c1cccc(Oc2ccccc2)c1	4	-0.1	-5	-0.9	-2.0%	4
Cc1ccc(NC(=O)Cn2nnc(C(=O)NCc3ccco3)c2N)cc1	-1	0.1	4	-1.8	2.2%	0
O=C(c1ccco1)N1CCN(Cc2nc(Cc3ccccc3)no2)CC1	7	-0.2	u	-6.5	0.6%	14
O=C(C1Cc2ccccc2CN1S(=O)(=O)c1cccs1)N1CCCCCC1 (stereo not given)	1	-1.0	10	-1.6	-1.7%	-2
CC1(c2cccc3ccccc23)NC(=O)N(CC(=O)NC2CCS(=O)(=O)C2)C1=O (stereo not given)	4	0.0	23	-1.3	-0.6%	12
